Compound activity from PubChem BioAssay.
Calb FLC: C. albicans growth inhibition with fluconazole, primary screen, CaCi-2 strain, Alamar Blue fluorescence; C. albicans CaCi-2 (fluconazole-resistant clinical isolate) + fluconazole, 48 h; growth inhibition, % (no concentration beside the values); 0.57% of 300,000 active;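 active = most replicates above 75%; inconclusive = exactly half above 75%; inactive = most below 75%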;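 also: all wells also contain fluconazole at 8 µg/ml as a sub-toxic cotreatment; 0% = median of DMSO wells and 100% = median of geldanamycin control wells; wells of about 8 µL received 7.5 nL stock; the first replicate is given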
Beta apoptosis: inhibitors of cytokine-induced beta cell apoptosis, primary screen, luminescence | 0.8% of 300,000 active | INS-1E cytokine-induced death, ATP luminescence, 48 h; percent of positive-control rescue, neutral wells zero | AID 435005, 2010 | protection from apoptosis, % (no concentration beside the values);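 active = all replicates at 75% or more, or half of them and the mean; inconclusive = half reach 75% but not the mean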;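 also: 0% = cytokine-treated negative control wells and 100% = positive control rescue; higher means more ATP so stronger rescue from cytokine killing; wells of about 40 µL received 100 nL stock; the first replicate is given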
UCH37 inh: inhibitors of human UCH37 deubiquitinase, primary screen, biochemical, Ub-AMC cleavage, fluorescence; 0.33% of 330,000 active; inhibition, % (no concentration beside the values); purified proteasome/UCH37;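 active = mean of two replicates above 20%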;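 also: 0% = compound-free wells with enzyme and 100% = wells lacking proteasome; stock transfer was 100 nL into about 20 µL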
Target sequence (Q9Y5K5 whole entry, looked up): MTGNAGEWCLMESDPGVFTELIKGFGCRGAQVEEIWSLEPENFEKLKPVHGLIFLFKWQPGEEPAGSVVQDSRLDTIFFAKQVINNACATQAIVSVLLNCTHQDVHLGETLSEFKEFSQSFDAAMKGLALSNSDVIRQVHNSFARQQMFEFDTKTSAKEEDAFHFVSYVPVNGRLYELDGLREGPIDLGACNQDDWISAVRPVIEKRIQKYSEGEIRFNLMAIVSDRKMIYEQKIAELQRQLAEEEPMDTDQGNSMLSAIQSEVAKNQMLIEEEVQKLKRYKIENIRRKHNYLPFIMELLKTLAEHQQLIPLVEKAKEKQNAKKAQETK
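system = Proteasome-associated human UCH37 deubiquitinase | amount = 0.15 nM proteasome as dispensed | medium = pH 7.4 Tris-HCl (50 mM) with ovalbumin, ATP-MgCl2, DTT | incubation = 30 min preincubation with enzyme, 25 min cleavage at room temperature | detection = AMC fluorescence 355/460 nm | read-out basis = percent inhibition | controls = no-proteasome and no-compound wells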
B2AR ag: beta2AR agonists driving receptor internalization, primary screen, cell-based, FAP fluorogen, flow cytometry; response, % (no concentration beside the values); AID 504454, 2011; 0.43% of 340,000 active; Am2.2-beta2AR cells; reference of the scale not given here; Beta-2 adrenergic receptor (Homo sapiens), P07550;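 active = response above a set limit, near 3 SD of response in nonfluorescent compounds, cut at about 42% in these data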;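 also: stock transfer was 100 nL into about 11 µL; a reference agonist was the positive control; negative values mostly stem from fluorescent compounds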
Target sequence (P07550 whole entry, looked up): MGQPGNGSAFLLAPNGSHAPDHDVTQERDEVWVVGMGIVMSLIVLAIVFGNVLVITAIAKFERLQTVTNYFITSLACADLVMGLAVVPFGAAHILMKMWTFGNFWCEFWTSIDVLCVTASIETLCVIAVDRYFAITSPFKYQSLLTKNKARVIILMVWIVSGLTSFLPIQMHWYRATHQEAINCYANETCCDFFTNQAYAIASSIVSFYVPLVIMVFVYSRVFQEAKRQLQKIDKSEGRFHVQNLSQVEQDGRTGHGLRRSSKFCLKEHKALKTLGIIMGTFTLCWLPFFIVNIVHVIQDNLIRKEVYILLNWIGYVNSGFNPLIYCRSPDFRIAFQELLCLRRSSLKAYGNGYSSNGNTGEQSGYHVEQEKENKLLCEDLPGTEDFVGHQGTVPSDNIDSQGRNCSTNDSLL
RanGTP-Impb inh: inhibitors of RanGTP-importin-beta interaction, primary screen, biochemical, FRET, CFP-Ran, YFP-importin-beta, homogeneous; Ran GTPase (GTP-bound) - importin-beta complex; cell-free CFP-Ran/YFP-importin-beta FRET ratio; inhibition, % (no concentration beside the values); 1.1% of 300,000 active; AID 2216, 2009;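 active = most replicates above 15%; inconclusive = exactly half above 15%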;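 also: 0% = DMSO wells and 100% = Ran loaded with GDP instead of GTP; wells of about 40 µL received 100 nL stock; the first replicate is given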
LANA-H2B inh: blockers of LANA interaction with H2A/H2B – biochemical, FP readout, HTS, primary screen. Protein LANA1 (Human herpesvirus 8 type P (isolate GK18)), Q9QR71. AID 2629, 2010. cell-free LANA-H2A/H2B peptide, fluorescence polarization. 0.6% of 320,000 active. inhibition, % (test concentration not listed); in the data active = inhibition mostly above about 10%, no sharp cut-off; inactive = mostly below about 6.7%;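 also: stock transfer was 7.5 nL into about 10 µL; 0% = median of vehicle wells and 100% = median of positive control wells; one replicate is shown; the record names a cut of 25% in any replicate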
T cruzi inh: inhibitors of intracellular T. cruzi growth, primary screen, luminescence, NIH3T3 host cells; T. cruzi beta-gal in NIH3T3, 90 h; inhibition, % (no concentration beside the values); 1.4% of 300,000 active;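 active = mean inhibition across valid replicates above about 55%, limit read from the data; inconclusive = mean below that limit but half or more replicates reach it; inactive = mean below it, under half of replicates reach it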;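 also: signal also drops with host cell toxicity which is not excluded here; 0% = plate median of DMSO wells and 100% = zero luminescence signal; higher percent means less beta-gal luminescence so fewer parasites; stock transfer was 50 nL into about 50 µL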
Bfl-1 A1 inh: caspase 3/7 activation in MEF A1-2A-BIM cells, primary screen, A1 inhibitor project, cell-based, luminescence, HTS; 0.066% of 330,000 active; Caspase-Glo 3/7 luminescence, 3 h; percent of clofoctol response, vehicle zero; caspase activation, % (concentration not given with the values); AID 2462, 2010;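 active = over half of replicate activation scores above 10%, or exactly half above 10 with the replicate mean above 10; inconclusive = replicate mean below 10 yet half the replicates above 10; inactive = over half of replicates below 10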;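 also: wells of about 30 µL received 50 nL stock; many hits fall short of the cut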
An asterisk follows results filed as active. Compounds as they come. About 4.3% of those tested had a hit in this group.

CCN(CC)C(=O)CSc1nnc2nnc3cc(C)ccc3n12 was read as Calb FLC -2, Beta apoptosis -19, UCH37 inh 1.0, B2AR ag 0, RanGTP-Impb inh -13, LANA-H2B inh 3.2, T cruzi inh 41 and Bfl-1 A1 inh 0.8.
CCN(NC(=O)C(O)(c1ccccc1)c1ccccc1)C(=O)c1ccccc1 was read as Calb FLC -3, UCH37 inh 1.1, B2AR ag 7, RanGTP-Impb inh inconclusive, LANA-H2B inh 1.1, T cruzi inh 0 and Bfl-1 A1 inh 0.9.
`C#CCOCCOCCOCCNc1nc(N2CCOCC2)nc(N2CCN(C(=O)[C@H](CCCN=C(N)N)n3cc(C(N)[C@@H](C)CC)nn3)CC2)n1` (some centres not stated) gave Beta apoptosis 2, UCH37 inh 2.5, B2AR ag -5, LANA-H2B inh 1.3 and Bfl-1 A1 inh 0.5.
Screening Oc1ccc(/C=N/NC(=S)N/N=C/c2ccc(O)cc2)cc1 returned Calb FLC -11, Beta apoptosis -5, B2AR ag 6, RanGTP-Impb inh -5.5, LANA-H2B inh 0.1, T cruzi inh -10 and Bfl-1 A1 inh -7.4.
`CCCCNC(=O)c1cc(C)nc2ccccc12` gave Calb FLC -17, Beta apoptosis 6, UCH37 inh 0.3, B2AR ag 0, RanGTP-Impb inh -0.1, LANA-H2B inh 1.7, T cruzi inh -34 and Bfl-1 A1 inh 0.5.
Cc1ccc(-c2cc(C(=O)NCc3ccccn3)c3ccccc3n2)cc1C was read as Calb FLC -4, Beta apoptosis 7, UCH37 inh -30, B2AR ag 0, RanGTP-Impb inh 1.0, LANA-H2B inh 3.4, T cruzi inh 7 and Bfl-1 A1 inh 1.3.
`O=C(c1ccoc1)N1CCC(CO)(CCc2ccccc2)CC1` gave Calb FLC 3, Beta apoptosis 2, UCH37 inh 4.7, B2AR ag 0, RanGTP-Impb inh 1.6, LANA-H2B inh 0.0, T cruzi inh -8 and Bfl-1 A1 inh -0.1.
`Nc1ncc([N+](=O)[O-])cc1S(=O)(=O)c1ccccc1` gave Calb FLC 0, Beta apoptosis -4, UCH37 inh 6.3, B2AR ag -6, RanGTP-Impb inh inconclusive, LANA-H2B inh 0.2, T cruzi inh 3 and Bfl-1 A1 inh 0.5.
O=C(Nc1cccc(O)c1)c1cccc(S(=O)(=O)N2CCCCCC2)c1 was read as Calb FLC 1, UCH37 inh -1.7, B2AR ag 7, RanGTP-Impb inh 4.9 and T cruzi inh -6.
Screening COC(=O)c1cccc(NC(=O)CSc2nnc(COc3cccc(C)c3)n2C)c1 returned Calb FLC -5, Beta apoptosis -10, UCH37 inh -0.6, B2AR ag 5, RanGTP-Impb inh 2.4, LANA-H2B inh -1.5, T cruzi inh -15 and Bfl-1 A1 inh -0.3.
Screening CCCN1CCN(CC(=O)Nc2nnc(C)s2)CC1 returned Calb FLC -2, Beta apoptosis -3, UCH37 inh 2.0, B2AR ag -3, RanGTP-Impb inh 6.1, LANA-H2B inh -5.5, T cruzi inh -9 and Bfl-1 A1 inh 0.3.
Screening O=C(O)CCNc1nc(-c2ccccc2)c2cc(Br)ccc2n1 returned Calb FLC 9, Beta apoptosis 7, UCH37 inh -12, B2AR ag 13, RanGTP-Impb inh 20*, LANA-H2B inh 0.4, T cruzi inh 25 and Bfl-1 A1 inh 0.2.
`O=C(COC(=O)c1cccc(Br)c1)Nc1ccc2[nH]c(=O)[nH]c2c1` gave Calb FLC 3, UCH37 inh 0.3, B2AR ag -6, RanGTP-Impb inh 3.5, LANA-H2B inh 1.2, T cruzi inh -5 and Bfl-1 A1 inh 0.7.
COc1ccc(Cl)cc1NC(=O)C1CCCN(c2cc(C)nc3ncnn23)C1 (configuration not stated) was read as Calb FLC -4, Beta apoptosis -4, UCH37 inh 3.9, B2AR ag -9, RanGTP-Impb inh 2.6, LANA-H2B inh -1.7, T cruzi inh 11 and Bfl-1 A1 inh 0.0.
Cc1c(CC(=O)NCC(=O)O)c(=O)oc2cc3c(cc12)CCC(C)(C)O3 was read as Calb FLC -1, Beta apoptosis 1, UCH37 inh inactive, B2AR ag 0, RanGTP-Impb inh 3.2, LANA-H2B inh -5.2, T cruzi inh -3 and Bfl-1 A1 inh 1.9.
CCN(CC)S(=O)(=O)c1cc(NC(=O)c2cccc(N3C(=O)CCC3=O)c2)ccc1Cl was read as Calb FLC 3, UCH37 inh 3.2, B2AR ag 2, RanGTP-Impb inh -0.3, LANA-H2B inh -1.6, T cruzi inh -7 and Bfl-1 A1 inh -0.3.
For CN(C)S(=O)(=O)N1CCCC(C(=O)c2ccc(-c3ccccc3)c(F)c2)C1 (configuration not stated) the results were Calb FLC 0, Beta apoptosis -2, UCH37 inh 1.0, B2AR ag 4, RanGTP-Impb inh -1.1, LANA-H2B inh -5.5, T cruzi inh 21 and Bfl-1 A1 inh 0.7.
For Cc1cc(C(=O)CN2CCC(C)CC2)c(C)n1-c1ccccc1F the results were Calb FLC 3, Beta apoptosis 5, UCH37 inh 2.8, B2AR ag 0, RanGTP-Impb inh -8.0, LANA-H2B inh -0.8, T cruzi inh 57* and Bfl-1 A1 inh -0.2.
COc1ccc(C2=NN(c3nc(C)cc(C)n3)C(=O)C2)cc1 was read as Calb FLC -33, Beta apoptosis 1, UCH37 inh 5.3, B2AR ag 4, RanGTP-Impb inh 5.6, LANA-H2B inh -2.0, T cruzi inh -24 and Bfl-1 A1 inh 0.0.
Screening COc1ccc(OC)c(CN2C(=O)CCC2(C)C(=O)NC2CCCCCC2)c1 (configuration not stated) returned Calb FLC 29, Beta apoptosis -1, UCH37 inh 2.1, B2AR ag 6, RanGTP-Impb inh inconclusive, LANA-H2B inh 0.9, T cruzi inh 3 and Bfl-1 A1 inh -0.1.
`CCOc1ccc(-n2nnc3c(=O)n(CC(=O)N4CCCc5ccccc54)cnc32)cc1` gave Calb FLC -6, Beta apoptosis 5, UCH37 inh 2.8, B2AR ag -4, RanGTP-Impb inh 3.6, LANA-H2B inh -2.8, T cruzi inh 6 and Bfl-1 A1 inh 0.3.
Screening O=C(Cn1cnc2c(cnn2-c2ccc(Cl)cc2)c1=O)N1CCN(c2ccccc2)CC1 returned Calb FLC -12, Beta apoptosis 17, UCH37 inh -0.3, B2AR ag 1, RanGTP-Impb inh 1.4, LANA-H2B inh -1.5, T cruzi inh -5 and Bfl-1 A1 inh -0.5.
O=C(NCC(c1ccco1)N1CCN(c2ccccc2F)CC1)C(=O)NC1CCCC1 (configuration not stated) was read as Calb FLC 5, Beta apoptosis -1, UCH37 inh 0.1, B2AR ag -3, RanGTP-Impb inh -1.6, LANA-H2B inh 0.0, T cruzi inh -2 and Bfl-1 A1 inh 0.4.
COc1ccc(NC(=O)CN(C)C(=O)Cc2ccc3c(c2)OCCO3)cc1 was read as Calb FLC -7, Beta apoptosis 0, UCH37 inh 1.7, B2AR ag 7, RanGTP-Impb inh -1.6, LANA-H2B inh 1.9, T cruzi inh -12 and Bfl-1 A1 inh 0.2.
Screening Fc1ccccc1CNCC1CCCO1 (configuration not stated) returned Calb FLC 10, UCH37 inh 2.3, B2AR ag 2, RanGTP-Impb inh 3.8 and T cruzi inh 0.
For CS(=O)(=O)c1ccc(Cl)c(NC(=O)CCN2C(=O)C3CC=CCC3C2=O)c1 (configuration not stated) the results were Beta apoptosis -2, UCH37 inh 0.1, B2AR ag -5, LANA-H2B inh 1.2 and Bfl-1 A1 inh -1.4.
For Cc1nnc(Cl)c2nn(-c3ccccc3)c(C)c12 the results were Calb FLC -31, Beta apoptosis 1, UCH37 inh 0.3, B2AR ag 2, RanGTP-Impb inh -1.3, LANA-H2B inh 5.0, T cruzi inh 3 and Bfl-1 A1 inh 0.2.
`Cc1ncoc1C(=O)N1CCCC(C(=O)c2ccc(-c3ccccc3)c(F)c2)C1` (configuration not stated) gave Calb FLC -4, Beta apoptosis 7, UCH37 inh -1.5, B2AR ag -10, RanGTP-Impb inh inconclusive, LANA-H2B inh -13, T cruzi inh -8 and Bfl-1 A1 inh 0.3.
`CCn1c(=O)cc(SCC(=O)NCc2ccco2)c2ccccc21` gave Calb FLC 7, Beta apoptosis -5, UCH37 inh -3.7, B2AR ag -3, RanGTP-Impb inh 8.3, LANA-H2B inh 3.1, T cruzi inh -17 and Bfl-1 A1 inh 0.8.
`COc1ccc(-c2cc(C(F)(F)F)nc(SCC(=O)N3CCOCC3)n2)cc1OC` gave Calb FLC 5, Beta apoptosis 12, UCH37 inh -36, B2AR ag -8, RanGTP-Impb inh -1.7, LANA-H2B inh -2.1, T cruzi inh -12 and Bfl-1 A1 inh 1.4.
`Cc1cccc(NC(=O)c2c(-c3ccccc3)noc2C)n1` gave Calb FLC -28, Beta apoptosis -4, UCH37 inh -1.2, B2AR ag -6, RanGTP-Impb inh 0.1, LANA-H2B inh -2.0, T cruzi inh -5 and Bfl-1 A1 inh 0.8.
NC(=O)N/N=C/C=C/c1ccccc1 was read as Calb FLC 14, Beta apoptosis -1, B2AR ag 0, RanGTP-Impb inh 0.4, LANA-H2B inh 2.2, T cruzi inh -6 and Bfl-1 A1 inh 0.2.
For CC(C)(C)C(=O)COC(=O)CCc1nc2ccccc2[nH]c1=O the results were Calb FLC 6, Beta apoptosis -3, UCH37 inh -39, B2AR ag 4, RanGTP-Impb inh -1.2, LANA-H2B inh 2.4, T cruzi inh -9 and Bfl-1 A1 inh 0.3.
`O=C(COC(=O)CCC(=O)c1ccccc1)NCCc1ccccc1` gave Calb FLC 4, Beta apoptosis -1, UCH37 inh 1.8, B2AR ag -6, RanGTP-Impb inh 2.3, LANA-H2B inh -3.4, T cruzi inh -9 and Bfl-1 A1 inh 0.2.
`Clc1cccc(-c2cc3nc4c(c(N5CCN(c6cnccn6)CC5)n3n2)CCCC4)c1` gave Calb FLC -3, Beta apoptosis 0, UCH37 inh -151, B2AR ag 9, LANA-H2B inh 3.2 and Bfl-1 A1 inh -0.7.
COc1cc(NS(=O)(=O)c2ccc(Br)cc2)c(OC)cc1NC(=O)c1ccco1 was read as Calb FLC 13, Beta apoptosis -1, UCH37 inh -1.2, B2AR ag -8, RanGTP-Impb inh 6.1, LANA-H2B inh -3.6, T cruzi inh 12 and Bfl-1 A1 inh 0.2.

Not a retest: 2 of the compounds above.
`Cc1cccc(NC(=O)c2c(-c3ccccc3)noc2C)n1` gave Calb FLC -28, Beta apoptosis -4, UCH37 inh -1.2, B2AR ag -6, RanGTP-Impb inh 0.1, LANA-H2B inh -2.0, T cruzi inh -5 and Bfl-1 A1 inh 0.8.
NC(=O)N/N=C/C=C/c1ccccc1 was read as Calb FLC 14, Beta apoptosis -1, B2AR ag 0, RanGTP-Impb inh 0.4, LANA-H2B inh 2.2, T cruzi inh -6 and Bfl-1 A1 inh 0.2.
